Rango dissoc inh = prevents RanGTP from dissociating the Rango-importin beta complex | O95149+P62826 | hit rate 0.071% among 340,000 | Biochemical FRET Rango-importin beta, RanGTP-induced dissociation | Potency, µM (series often up to 46.1 µM), for inactives: at the top dose activity change, negative = inhibition; active means falling FRET ratio curve, often poorly fitted, with flat reads before Ran was added; inconclusive means other falling curves, or compound fluorescence or quenching; inactive means flat or rising ratio curve;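 also: potency is read from the fitted curve at half-maximal effect; % of control where 0% means no effect; nearly all actives have a fitted effect of over 45% in size; -100% = wells without RanGTP and RCC1; the record marks most hits as doubtful in a second field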
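Rango FRET biosensor (snurportin-1 IBB flanked by N-terminal EYFP and C-terminal CFP10) at 0.1 uM, with 0.25 uM importin beta in PBS, 1mM DTT, 0.02% Tween-20, 0.1% BSA. 0.6 uM Ran, 2mM GTP and 0.2 uM RCC1 were then added for 45 min at room temperature. Inhibition read as loss of FRET rise.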
Rango complex inh = inhibitors of Rango-importin beta complex formation. Q14974. Rango CFP/YFP FRET sensor + importin beta, 45 min. AID 540263. Potency, µM (highest dose often 92.2 µM), inactives show top-dose inhibition of complex formation. hit rate 0.031% among 340,000; active = rising FRET ratio curve, often small or poorly fitted; inconclusive = mostly compound fluorescence or quenching in the first reads; inactive = flat curves in all reads;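 also: potency is read from the fitted curve at half-maximal effect; 0% = DMSO wells and 100% = buffer wells lacking importin beta; nearly all actives have a fitted effect of over 15% in size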
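FRET biosensor (snurportin 1 IBB flanked by EYFP and cerulean), 50 nM, with compound 5 min, then 0.125 microM importin beta in PBS, 1 mM DTT, 0.02% Tween-20, 0.1% BSA. CFP/YFP ratio read after 45 min at room temperature; pre-read flags interference.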
miR-21 FLuc = raises the signal of a miR-21 reporter; HeLa miR-21 FLuc reporter, luciferase, 48 h; Potency, µM (titrated, usually from 38.3 µM), for the others: at the highest dose reporter change, positive = more light; 340,000 tested, under 10 active; active = well fitted rising curve with a large enough effect; inconclusive = small, poorly fitted or top-dose-only effect; inactive = no such curve, though single readings can be large or run the other way;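 also: % of control where 0% means no effect; miR-21 action dims this reporter so a rising signal means less miR-21 action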
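HeLa miR-21-FLuc reporter line, endogenous miR-21; 2000 cells/well in DMEM/10% FBS; compound titration up to ~40uM final, 48 h, 37 degree Celsius; luciferase detection reagent, 15 min lysis, CCD luminescence.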
GLA inh pH 4.5 = alpha-galactosidase A (human) inhibition, pH 4.5; P06280; purified enzyme, 4-MU-alpha-Gal fluorescence, pH 4.5; activity change, negative = inhibition, % at 105 µM; 230,000 tested, under 10 active; AID 1467; inconclusive = small, poorly fitted or top-dose-only inhibition, or a rising curve; inactive = flat fitted curve, though single readings scatter; no compound was filed as active;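 also: 0% = full activity with enzyme and -100% = basal without enzyme; dose as in the result columns while the protocol names 77 µM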
Target sequence (P06280 whole entry, looked up): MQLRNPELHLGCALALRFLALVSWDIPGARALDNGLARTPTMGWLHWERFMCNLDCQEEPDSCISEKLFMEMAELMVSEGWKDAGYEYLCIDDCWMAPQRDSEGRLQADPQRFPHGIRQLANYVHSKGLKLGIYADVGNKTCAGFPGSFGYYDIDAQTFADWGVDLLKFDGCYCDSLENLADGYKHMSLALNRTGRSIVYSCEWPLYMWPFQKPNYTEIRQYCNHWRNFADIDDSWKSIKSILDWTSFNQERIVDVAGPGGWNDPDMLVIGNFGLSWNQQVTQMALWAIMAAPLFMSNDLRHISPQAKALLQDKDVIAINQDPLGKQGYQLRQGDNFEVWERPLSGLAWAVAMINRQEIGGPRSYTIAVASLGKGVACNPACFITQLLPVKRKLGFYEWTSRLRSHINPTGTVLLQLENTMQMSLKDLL
The depositor's hits bear a star; ? = inconclusive; . = no result given; & = joins results of further samples.

Assay codes: A = Rango dissoc inh; B = Rango complex inh; C = miR-21 FLuc; D = GLA inh pH 4.5
> O=C(Nc1cccc(F)c1)Nc1ccnn1C1CCN(C(=O)CCN2CCCO2)CC1
  A: -1%	B: 0.2%	C: 2%	D: .

> Cc1ccc(OCc2ccc(Br)cc2)c([N+](=O)[O-])n1
  A: .	B: .	C: -79%	D: -12

> COc1ccc(NS(=O)(=O)c2ccc(NS(=O)(=O)c3cccs3)cc2)c(OC)c1
  A: -1%	B: 3.1%	C: 2%	D: .

> CCNc1nc2c(c(=O)[nH]c(=O)n2C)n1Cc1ccc(F)cc1
  A: 25%	B: 4.5%	C: -5%	D: 13

> Fc1ccc(COc2ccc(C(=S)N3CCCC3)cc2)cc1
  A: 18%	B: -4.4%	C: -34%	D: .

> CCOc1ccc(C(=O)N(CC)CC(=O)Nc2ccc3c(c2)OCCO3)cc1OCC
  A: -8%	B: -0.7%	C: .	D: .

> CCC1CCCCN1C(=S)NC(=O)c1ccco1 (centres undefined)
  A: 8%	B: -2.0%	C: .	D: .

> O=C(CN1CCNCC1)Nc1ccc(Oc2ccccc2)cc1
  A: 1%	B: -3.0%	C: -13%	D: -7

> C/C(=N\NC(=O)c1cc(C)nc2ccccc12)c1ccccn1
  A: -5%	B: -0.1%	C: .	D: .

> COc1ccccc1N1CCN(C(=O)CSc2ccccc2)CC1
  A: 10%	B: 0.8%	C: -48%	D: 2

> COc1ccc(/C(O)=C2/C(=O)C(=O)N(c3ccccn3)C2c2ccc(OC)c(OC)c2)cc1 (centres undefined)
  A: 0%	B: -0.5%	C: -4%	D: -1

> COc1cc(/C=C(\C#N)C(=O)Nc2ccccc2C(=O)O)cc(Cl)c1OC
  A: -7%	B: -5.0%	C: -10%	D: -7

> O=C1CSC2(N1)C1CC3CC(C1)CC2C3 (centres undefined)
  A: -1%	B: 0.4%	C: -1%	D: 0

> CC1CC(C)CN(C(=S)SCc2nc(N)nc(Nc3ccccc3)n2)C1 (centres undefined)
  A: 26%	B: 4.1%	C: -13%	D: -7

> O=C(Nc1ncc(Cc2ccccc2Cl)s1)C1CCCO1 (centres undefined)
  A: -17%	B: ?	C: -37%	D: 0

> O=C(NCCCN1CCCC1=O)c1cc(-c2ccc3c(c2)OCO3)nc2ccccc12
  A: 9%	B: -6.2%	C: 0%	D: -2

> Oc1ccc2ccccc2c1/C=N/c1nccs1
  A: -8%	B: ?	C: 0%	D: 3

> CC(=O)Nc1ccc(S(=O)(=O)Nc2cccn(Cc3ccc(C)cc3)c2=O)cc1
  A: -12%	B: -0.4%	C: 10%	D: -9

> CC1CCC2(CC1)NC(=O)N(NC(=O)CCl)C2=O (centres undefined)
  A: -3%	B: 0.1%	C: -2%	D: 6

> C=CCNc1nc(C(=O)OCC(=O)Nc2c(Cl)cccc2C(F)(F)F)cs1
  A: 20%	B: 0.2%	C: .	D: .

Some entries already given with just Rango dissoc inh, GLA inh pH 4.5 and miR-21 FLuc:
structure | Rango dissoc inh | GLA inh pH 4.5 | miR-21 FLuc
COc1ccc(/C(O)=C2/C(=O)C(=O)N(c3ccccn3)C2c2ccc(OC)c(OC)c2)cc1 (centres undefined) | 0% | -1 | -4%
COc1cc(/C=C(\C#N)C(=O)Nc2ccccc2C(=O)O)cc(Cl)c1OC | -7% | -7 | -10%
O=C1CSC2(N1)C1CC3CC(C1)CC2C3 (centres undefined) | -1% | 0 | -1%
CC1CC(C)CN(C(=S)SCc2nc(N)nc(Nc3ccccc3)n2)C1 (centres undefined) | 26% | -7 | -13%
O=C(Nc1ncc(Cc2ccccc2Cl)s1)C1CCCO1 (centres undefined) | -17% | 0 | -37%
O=C(NCCCN1CCCC1=O)c1cc(-c2ccc3c(c2)OCO3)nc2ccccc12 | 9% | -2 | 0%

Arranged by the number under miR-21 FLuc (ascending): three from the list above.
Structure,Rango dissoc inh,Rango complex inh,miR-21 FLuc,GLA inh pH 4.5
CC1CC(C)CN(C(=S)SCc2nc(N)nc(Nc3ccccc3)n2)C1 (centres undefined),26%,4.1%,-13%,-7
Oc1ccc2ccccc2c1/C=N/c1nccs1,-8%,?,0%,3
CC(=O)Nc1ccc(S(=O)(=O)Nc2cccn(Cc3ccc(C)cc3)c2=O)cc1,-12%,-0.4%,10%,-9

Going on with the list:
Assay codes: A = Rango dissoc inh; B = Rango complex inh; C = miR-21 FLuc; D = GLA inh pH 4.5
> COc1ccc(S(=O)(=O)N2CCN(C3Cc4ccccc4C3)CC2)cc1
  A: -3%	B: -3.1%	C: -9%	D: 6

> CCN(CC(=O)NCc1ccc(Cl)cc1)C(=O)CCc1ccccc1
  A: 0%	B: 1.4%	C: 2%	D: .

> CC1=CC(C)(C)NC(=S)N1c1ccccc1C
  A: 14%&-13%	B: 0.8%&10%	C: 1%	D: -1

> COc1ccc(S(=O)(=O)N2CCN(Cc3cc(=O)n4ccccc4n3)CC2)cc1
  A: -5%	B: 0.2%	C: .	D: .

> c1ccc(C(CN2CCCCC2)Oc2ccccn2)cc1 (centres undefined)
  A: 19%	B: 5.0%	C: .	D: .

> OCC#CCSc1nnc(-c2cccc3ccccc23)o1
  A: 4%	B: 0.0%	C: .	D: .

> NC1=C(c2ccc(F)cc2)C(=O)CS1
  A: -4%	B: 0.0%	C: 3%	D: 0

> CN(C)C(=O)/C(=C/c1ccc(-c2cccc([N+](=O)[O-])c2)o1)NC(=O)c1ccccc1
  A: -3%	B: -0.1%	C: 8%	D: .

> COc1ccc(S(=O)(=O)N2CCCN(CC(=O)Nc3ccc4c(c3)OCO4)CC2)cc1
  A: -4%	B: -5.7%	C: -4%	D: 1

> Cc1ccc(-c2ccc(=O)n(CCC(=O)NCCN3CCCCC3C)n2)cc1 (centres undefined)
  A: -6%	B: 0.3%	C: 0%	D: -4

> C[C@H]1CCC[C@@]2(O[C@@H](CCO)C[C@@H](O)[C@@H]2O)O1
  A: 1%	B: 0.0%	C: 10%	D: 2

> CCN(CC)S(=O)(=O)c1ccc(O)c(C(=O)OCC(=O)N(C)Cc2ccccc2)c1
  A: 24%	B: -0.2%	C: 0%	D: 4

> CC(=O)c1ccc(-c2ccc(/C=C(/Sc3n[nH]c(C)n3)C(=O)O)o2)cc1
  A: ?	B: ?	C: -2%	D: -20

> CN(C(=O)Nc1ccc(Cl)cc1Cl)[C@H]1c2cc(Br)ccc2OC[C@H]1CO
  A: 14%	B: -0.9%	C: 17%	D: -14

> Cc1cc(N2C(=O)C(O)=C(C(=O)c3cc4ccccc4o3)C2c2ccc(Cl)cc2)no1 (centres undefined)
  A: ?	B: ?	C: -5%	D: .

> Cn1c(CCC(=O)O)nc2cc(S(=O)(=O)N3CCCC3)ccc21
  A: -13%	B: -2.9%	C: .	D: .

> O=C(NCC(=O)N1CCOCC1)c1ccc(Cl)c(Cl)c1
  A: -10%	B: -1.4%	C: .	D: .

> COc1ccc(-c2nc3c(c(SCC(=O)N4CCOCC4)n2)COC(C)(C)C3)cc1
  A: 10%	B: 0.6%	C: -7%	D: 13

> CC1CCCC(C)N1/N=C/c1ccc(N(C)C)cc1 (centres undefined)
  A: -6%	B: -2.9%	C: -10%	D: 4

> NS(=O)(=O)c1cccc(NC(=O)c2cccc(Oc3ccccc3)c2)c1
  A: 19%	B: -3.6%	C: 3%	D: .

(more compounds)
The line under a structure holds: Rango dissoc inh | Rango complex inh | miR-21 FLuc | GLA inh pH 4.5
COc1ccc(CNC(=O)[C@H](Cc2ccccc2)NC(=O)C2CCNCC2)cc1
    5% | -0.6% | -4% | .
COc1ccc(NC(=O)Cn2c(C)cc(=O)c3ccccc32)cc1
    17% | -2.9% | 10% | -4
Cc1ccc2c(c1)NC(=O)C(CC(=O)NCCCN1CCc3ccccc3C1)O2 (centres undefined)
    -17% | -3.2% | -9% | 1
Brc1ccc(Oc2nsnc2N2CCOCC2)cc1
    -7% | -3.4% | -13% | 2
O=C(NC(=S)Nc1ccccc1)c1cccs1
    -2% | -1.3% | -49% | .
CCOc1ccc(Nc2nc(CC(=O)OC)cc(=O)[nH]2)cc1
    -14% | 4.4% | 0% | 1
COc1ccc(-c2nnc(SCC(N)=O)n2N)cc1
    3% | -0.7% | -8% | -6
COc1ccc(-c2nc(NC(=O)c3ccc(OCC(=O)Nc4ccc(F)cc4)c(OC)c3)sc2C)cc1
    -7% | -2.2% | 4% | -2
O=C(CSc1nc2ncccc2[nH]1)NCCc1ccccc1
    2% | -4.7% | 5% | 5
CCN(C[C@H]1N[C@@](Cc2ccccc2)(C(=O)OC)[C@H]2C(=O)N(Cc3ccccc3)C(=O)[C@@H]12)S(=O)(=O)c1ccc(-c2ccccc2)cc1
    1% | -0.6% | . | .
CCOc1ccc(NC(=O)C2CCCN(S(=O)(=O)c3c(C)n[nH]c3C)C2)cc1 (centres undefined)
    20% | -0.8% | 1% | 1
O=C(NC(=S)NCc1cccnc1)c1cccc2ccccc12
    2% | -0.3% | -4% | -9
CCO/C=C1\SC(=S)N(c2ccc(Cl)cc2)C1=O
    0% | -1.6% | 11% | -1
CSc1nnc(NC(=O)c2nc(S(=O)(=O)Cc3ccc(C)cc3)ncc2Cl)s1
    -12% | 1.4% | ? | .
CCOC(=O)N1CCC(NC(=O)CNS(=O)(=O)c2ccc(Br)s2)CC1
    -2% | 2.2% | 18% | 8

In another format: results already given
Rango dissoc inh	Rango complex inh	miR-21 FLuc	GLA inh pH 4.5	molecule
-12%	1.4%	?	.	CSc1nnc(NC(=O)c2nc(S(=O)(=O)Cc3ccc(C)cc3)ncc2Cl)s1
2%	-4.7%	5%	5	O=C(CSc1nc2ncccc2[nH]1)NCCc1ccccc1

(next part)
The line under a structure holds: Rango dissoc inh | Rango complex inh | miR-21 FLuc | GLA inh pH 4.5
CCC(=O)Nc1nnc(/C=C/c2ccc(OC)cc2)s1
    -23% | ? | -65% | 1
COc1ccc(OC)c(-n2c(=S)[nH]c3cc(C(=O)N4CCCCC4)ccc3c2=O)c1
    ? | 4.9% | -1% | 7
COCCNC(=O)c1ccc(C(=O)C(=O)c2ccccc2)cc1
    -1% | -0.9% | -4% | -13
CSc1nc2c(c(=O)[nH]c(=O)n2C)n1CCCc1ccccc1
    17% | 2.1% | -15% | .
COc1cccc(-c2cccc(NC(=O)C3CCN(Cc4ccc(C)o4)CC3)c2)c1
    -25% | 0.0% | -4% | .
Cc1ccc(S(=O)(=O)/N=C(/NC(=S)Nc2ccccc2)c2ccccc2)cc1
    4% | 0.1% | -36% | -9
O=C(Cc1ccc(Cl)cc1)Nc1ccccc1N1CCOCC1
    0% | 0.6% | -4% | -3
Clc1ccccc1Cn1nnc2c(NCCN3CCOCC3)ncnc21
    0% | 2.9% | 1% | 1
CCC1(C)Cc2c(sc3[nH]c(=S)[nH]c(=S)c23)CO1 (centres undefined)
    5% | 2.3% | -4% | .
Cc1ccc(S(=O)(=O)c2cn(C)c3cc(N4CCN(C)CC4)c(F)cc3c2=O)cc1
    -10% | 5.9% | 0%&0% | .
Cc1ccc(-c2nnn(CC(=O)N3CCCc4ccccc43)n2)cc1
    -12% | 1.0% | -6% | -8
O=C(CC1S/C(=N/N=C/c2ccco2)NC1=O)Nc1ccccc1 (centres undefined)
    2% | -0.3% | -5% | -2
Nc1nc2n(n1)C(c1ccco1)CC(c1ccc(Cl)c(Cl)c1)N2 (centres undefined)
    -7% | 5.1% | -6% | 1
O=C(NC1CC1)c1cccc(NC(=O)C2CC2)c1
    -8% | -0.2% | . | .
Nc1ccccc1N=Cc1ccc(-c2cccc(Cl)c2)o1
    -13% | ? | 20% | 27

Assay outcomes from PubChem BioAssay.

A portion of the library; count on the stated rates, not on these rows.
